From PubChem
KCNQ2 inh: KCNQ2 channel blockers in CHO-K1 cells – cell-based, FluxOR thallium flux, B-score, primary screen (AID 2156). 20 min; stronger effect = lower value; only compounds with negative scores are shown here; some inactives read as strong as hits. B-score at 10 µM. 310,000 compounds, 1.1% hits;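 active = fluorescence ratio B-score at most minus 3 library SDs, with starting brightness B-score within 2 library SDs, cut at about -5.5 in these data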
Target sequence (O88943 whole entry, looked up): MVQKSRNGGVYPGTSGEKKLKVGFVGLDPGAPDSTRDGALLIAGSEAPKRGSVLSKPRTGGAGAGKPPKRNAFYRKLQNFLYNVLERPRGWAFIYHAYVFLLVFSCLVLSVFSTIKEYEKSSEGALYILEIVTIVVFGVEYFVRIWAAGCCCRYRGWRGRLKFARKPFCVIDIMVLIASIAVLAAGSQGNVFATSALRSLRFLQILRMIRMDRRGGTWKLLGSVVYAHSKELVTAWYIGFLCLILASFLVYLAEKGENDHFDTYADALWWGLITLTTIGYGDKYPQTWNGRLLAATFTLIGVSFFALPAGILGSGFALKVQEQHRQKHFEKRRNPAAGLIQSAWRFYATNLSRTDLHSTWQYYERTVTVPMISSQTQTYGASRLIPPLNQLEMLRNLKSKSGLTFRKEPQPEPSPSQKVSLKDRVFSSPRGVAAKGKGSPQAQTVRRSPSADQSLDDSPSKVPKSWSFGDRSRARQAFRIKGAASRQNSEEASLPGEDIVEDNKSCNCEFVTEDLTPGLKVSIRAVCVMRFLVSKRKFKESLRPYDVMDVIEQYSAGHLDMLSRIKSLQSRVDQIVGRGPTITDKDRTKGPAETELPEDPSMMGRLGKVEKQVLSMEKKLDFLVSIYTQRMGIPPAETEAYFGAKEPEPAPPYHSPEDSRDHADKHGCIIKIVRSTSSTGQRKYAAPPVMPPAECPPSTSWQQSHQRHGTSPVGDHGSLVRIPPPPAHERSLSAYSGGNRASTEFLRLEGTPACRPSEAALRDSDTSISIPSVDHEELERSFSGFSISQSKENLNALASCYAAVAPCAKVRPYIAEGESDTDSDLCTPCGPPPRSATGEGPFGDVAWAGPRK
KCNQ2 inh baseline: recorded beside KCNQ2 inh, whose call it bears; B-score; measured here: initial fluorescence intensity artifact check;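 brightness before thallium and not channel activity; 0 = typical well and far values either way flag optical interference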
* marks the source's active call; other numbers are inactive results; i = inactive.

KCNQ2 inh | KCNQ2 inh baseline | compound
i | -2.51 | COc1ccc(/C=C2\Sc3ccc(C(=O)N4CCN(Cc5ccccc5)CC4)cc3N(C)C2=O)cc1OC
i | 97.9 | Cn1c(=O)c(N)c2c3c(c(Br)ccc31)C(=O)c1ccccc1-2
i | 0.11 | Cc1nc(N=Nc2ccc(O)cc2)n[nH]1
i | -0.18 | O=C(c1ccc(Br)cc1)N1CCCc2ccccc21
i | 1.52 | CC(=O)NC(Cc1ccc(C)cc1)C(=O)NC1CCN(C(=O)NCc2ccccc2)CC1 (stereo not given)
i | 0.79 | COc1ccc(-c2nnc(NC(=O)C(C)C)s2)c(OC)c1
i | 0.13 | O=C1c2ccccc2C(=O)N1SC1CCCCC1
i | 1.57 | COC(=O)c1ccc(CNC(=O)COC(=O)CCC2CCCC2)cc1
i | -1.48 | C=CCn1c2ccccc2c2nnc(SCc3[nH]c(=O)[nH]c3C(=O)CCCCC(=O)OCC)nc21
i | -2.65 | O=C(OCc1ccc(Br)cc1F)c1cc2ccccc2oc1=O
i | -0.46 | CCOC(=O)N1CCC(NC(=O)CSc2cc(=O)n(CC)c3ccccc23)CC1
i | -0.02 | CCC(=O)N1CCCc2cc(S(=O)(=O)CCC(=O)Nc3ccccc3C)ccc21
i | -1.98 | O=C(NNC(=S)NC(=O)c1cn(-c2ccccc2)nc1-c1ccccc1)c1ccncc1
i | 1.36 | CCOC(=O)c1c(C)nc2sc3c(=O)n(-c4ccc(OC)cc4)nnc3c2c1-c1ccc(OC)cc1
i | 1.34 | O=C(NCCCNC(=O)c1ccco1)c1ccco1
i | -0.82 | CC(C)CCN(C(=O)C1=COCCO1)c1c(N)n(Cc2ccccc2)c(=O)[nH]c1=O
i | 1.57 | CN(C)CCNC(=O)c1onc(CSc2ccc(F)cc2)c1C(=O)NCCN(C)C
i | 3.02 | CC(/C=N\NC(=O)c1cc(C)oc1C)=C\c1ccccc1
i | 0.56 | C=CCn1c(SCC(=O)NC2CCCCC2)nnc1-c1ccccn1
i | 0.35 | CCCCCN(C(=O)CCC(=O)OCc1ccccc1C(F)(F)F)c1c(N)n(CCCC)c(=O)[nH]c1=O
i | -1.41 | Cc1nn2c3ccccc3nc2n(C)c1=O
i | -2.14 | NC(=O)CC(NC(=O)c1ccccc1)c1ccc(N2CCCCCC2)c([N+](=O)[O-])c1 (stereo not given)
i | 0.08 | Cc1cn(CC(=O)c2ccccc2)c2ccccc12
i | 0.18 | COc1ccc(CNC(=O)CN(c2ccc(C)cc2)S(=O)(=O)c2c(C)noc2C)cc1
i | 0.08 | CCc1ccc(OCCNC(=O)c2ccccc2SCc2ccc(F)cc2)cc1
i | -1.47 | CCN1CCN(CC(O)COCC2COc3ccccc3O2)CC1 (stereo not given)
i | 0.22 | CCOC(=O)C1(Cc2cccc(Cl)c2)CCCN(C(=O)c2cc(C(C)C)nn2C)C1 (stereo not given)
i | 0.82 | COc1ccccc1C(c1nnnn1CCc1ccccc1)N1CCN(c2ccccc2)CC1 (stereo not given)
i | 1.31 | O=C(Cn1c(NCCCO)nc2ccccc21)c1cccc(Br)c1
i | -0.67 | CCCCN(C(=O)CCC(=O)Nc1cc(C)on1)C(C(=O)NC(C)(C)CC)c1cccc(OC)c1OC (stereo not given)
i | 1.96 | CCOc1ccc(NC(=S)N2CCC(NC(=O)C3CCCCC3)CC2)cc1
i | 0.73 | CC(C)N1CCC2(CC1)N=C(c1ccc3c(c1)OCO3)CC(c1cc(Cl)ccc1O)N2 (stereo not given)
i | -0.52 | CCNC(C(=O)c1c[nH]c2c(CC)cccc12)c1ccccc1 (stereo not given)
i | 1.5 | Cc1cc(F)ccc1NC(=O)c1cc(S(=O)(=O)N2CCCC2)cn1C
i | -0.31 | O=C(CSc1nc(C(F)(F)F)cc(=O)[nH]1)N1CCCCCC1
i | -1.43 | O=C(c1cccnc1)n1nc(-c2ccco2)nc1NCc1cccs1
i | 1.78 | Cc1ccc(NC(=O)CSC2=Nc3ccccc3C3CC=NN23)c(C)c1 (stereo not given)
i | -0.21 | CC(=O)C1=C(C)NC(=O)NC1c1ccc(OC2CCCC2)cc1 (stereo not given)
i | 0.46 | COc1ccc(-c2nc(C(N)=O)c3[nH]c(=O)n(-c4cccc(Cl)c4)c3n2)cc1OC
i | 0.03 | O=C(O)c1ccc(Nc2ccc(F)c(F)c2)c([N+](=O)[O-])c1
i | -0.52 | CCCC(=O)Nc1cc(-c2nn(C)c(=O)c3ccccc23)ccc1N1CCOCC1
i | 1.65 | Cn1cccc1C(=O)C(=O)Nc1cccc(Cl)c1Cl
i | -0.01 | CCC(C)NC(=O)C1CCN(c2nc(C)cc(C)n2)CC1 (stereo not given)
i | -0.43 | COc1ccc(C(=O)N2N=C(c3cccc(OC)c3)CC2(O)C(F)(F)F)cc1 (stereo not given)
i | -0.83 | COc1ccccc1CO/N=C/NC(=O)c1c(OC)ccnc1Oc1ccc(F)cc1
i | -0.4 | Clc1cc(-c2ccccc2)nc(-c2ccccc2)n1
i | 0.1 | COc1cccc(-c2nc(CSCC(=O)N3CCc4ccccc43)c(C)o2)c1
i | 0.06 | Cc1ccc(-n2nc3c(c2NC(=O)c2ccco2)CS(=O)C3)cc1 (stereo not given)
i | 0.48 | O=C(CN1CCN(Cc2ccccc2)CC1)N1CCCc2c1c(=O)oc1ccc(O)cc21
i | -0.36 | CC1=C(C(=O)OC(C)C)C(c2cccs2)N2C(=O)C(C)SC2=N1 (stereo not given)
i | 1.74 | Cc1ccc(Cn2nc(C)c3cc(C(=O)OCC(N)=O)sc32)cc1
i | 0.29 | O=C(NCCN1CCOCC1)c1cc(-c2ccc(Br)cc2)on1
i | 0.5 | N#Cc1c(N)n[nH]c1CCCN
i | -0.98 | O=C(NCC1(c2ccccc2)CCCC1)c1ccc(Br)o1
i | -1.41 | COc1cccc(-c2nc(CS(=O)(=O)CC(=O)NC3CCC(C)CC3)c(C)o2)c1 (stereo not given)
-6.42* | 1.91* | CCOC(=O)c1ccccc1NC(=O)c1cn(-c2ccc(C)c(C)c2)c(=O)c2ccccc12

Quoted from the listing.
Cc1ccc(Cn2nc(C)c3cc(C(=O)OCC(N)=O)sc32)cc1 | KCNQ2 inh baseline: 1.74
CC1=C(C(=O)OC(C)C)C(c2cccs2)N2C(=O)C(C)SC2=N1 (stereo not given) | KCNQ2 inh baseline: -0.36
CCOC(=O)c1ccccc1NC(=O)c1cn(-c2ccc(C)c(C)c2)c(=O)c2ccccc12 | KCNQ2 inh: -6.42*
O=C(CN1CCN(Cc2ccccc2)CC1)N1CCCc2c1c(=O)oc1ccc(O)cc21 | KCNQ2 inh baseline: 0.48
COc1cccc(-c2nc(CS(=O)(=O)CC(=O)NC3CCC(C)CC3)c(C)o2)c1 (stereo not given) | KCNQ2 inh baseline: -1.41
O=C(NCCN1CCOCC1)c1cc(-c2ccc(Br)cc2)on1 | KCNQ2 inh baseline: 0.29

(more compounds)
KCNQ2 inh | KCNQ2 inh baseline | compound
i | -2.67 | Cc1ccc(C(=O)N2CCCC(CCC(=O)N3CCN(c4ccccn4)CC3)C2)cc1 (stereo not given)
i | 2.45 | C/C(=C\c1ccco1)C1Nc2cccc3cccc(c23)N1
i | -0.07 | CN(C)S(=O)(=O)N1CCN(S(=O)(=O)N2CCOCC2)CC1
i | -0.82 | CCC1CCCCN1CCCNC(=O)Cn1ncn2nc(-c3ccc(OC)cc3)cc2c1=O (stereo not given)
i | 0.67 | Cc1c(C(=O)NCCCn2ccnc2)oc2ccccc12
i | 0.15 | CCC(C)c1c(O)nc(SCC(=O)Nc2ccccc2)[nH]c1=O (stereo not given)
i | -0.51 | O=C1CC(=O)C(n2cncn2)C(c2ccc(Cl)cc2)C1 (stereo not given)
i | -0.07 | COc1cc(CNCCO)cc(Br)c1OCc1ccccc1Cl
i | -0.26 | O=c1c(Cc2c(F)cccc2Cl)c(O)ccn1Cc1ccc(F)cc1
i | 0.85 | CCCC[C@@H]1C[C@H]1[C@@H](NC(=O)c1ccco1)c1ccc(Cl)cc1
i | 0.7 | COCCn1c(SCC(=O)Nc2cc(C)on2)nnc1-c1c[nH]c2ccccc12
i | -0.31 | COc1ccccc1N(C)S(=O)(=O)c1ccc(C(=O)Nc2nc(C)cs2)cc1
i | 0.14 | CCS(=O)(=O)NCCNc1ccc([N+](=O)[O-])cc1
i | 1.25 | COc1ccc(OC)c(-n2c(-c3ccc(C)cc3)n[nH]c2=S)c1
i | 2.61 | N=C1S/C(=C\c2ccco2)C(=O)N1c1ccc2c(c1)OCO2
i | 0.04 | Oc1c(C=C2N=c3ccccc3=N2)sc(=S)n1-c1ccccc1
i | 2.17 | COc1ccc(OC)c(NC(=O)C2CCN(S(C)(=O)=O)CC2)c1
i | -0.17 | CCCCC(=O)N1CCCC(C)C1 (stereo not given)
i | -2.62 | Cc1ccc(S(=O)c2ccc(C)cc2)cc1
i | 0.37 | COCCNC(=O)C(=O)NCC(c1ccc2c(c1)OCO2)N1CCN(c2ccc(F)cc2)CC1 (stereo not given)
i | 0.44 | COc1ccc(NC(=O)C(=O)Nc2cccc3ccccc23)c(OC)c1
i | 2.16 | COc1ccc(S(=O)(=O)N2CCOCC2)cc1NC(=O)c1cc2c(s1)CCCC2
i | -2.25 | CC(=O)Nc1ccc(CN2CCCC(C(=O)c3cccc(C(F)(F)F)c3)C2)cc1 (stereo not given)
i | 0.36 | Cc1cccc(NC(=O)CN2C(=O)S/C(=C\c3ccc(O)c([N+](=O)[O-])c3)C2=O)c1
i | -1.38 | Cc1ccc(C(=S)N2CCN(Cc3ccccc3)CC2)s1
i | -1.66 | COc1ccc(CC(=O)OCC(=O)N2CCCC(C)C2)cc1 (stereo not given)
i | -2.14 | CCC(=O)c1ccc(OCc2ccc(C#N)cc2)cc1
i | -1.33 | N#Cc1cc(Oc2cccc3cccnc23)c(-n2nnc3ccccc32)cc1C#N
i | 0.03 | COc1ccc(C(=O)N(Cc2nc(-c3ccc(C)cc3)no2)C2CCCCC2)cc1OC
i | 1.69 | Cc1ccc(-n2c(C)nc3c(cnn3-c3ccccc3Cl)c2=O)cc1C
i | -0.35 | CCN(CC(=O)Nc1c(F)cccc1F)C(=O)c1cc([N+](=O)[O-])ccc1N1CCCCC1
i | -1.37 | COc1ccccc1N1CCN(C(=O)C(=O)c2cn(CC(=O)N3CCCC3)c3ccccc23)CC1

Looked up by compound from the list above (four):
KCNQ2 inh | KCNQ2 inh baseline | compound
i | -1.38 | Cc1ccc(C(=S)N2CCN(Cc3ccccc3)CC2)s1
i | 1.69 | Cc1ccc(-n2c(C)nc3c(cnn3-c3ccccc3Cl)c2=O)cc1C
i | -1.37 | COc1ccccc1N1CCN(C(=O)C(=O)c2cn(CC(=O)N3CCCC3)c3ccccc23)CC1
i | 0.03 | COc1ccc(C(=O)N(Cc2nc(-c3ccc(C)cc3)no2)C2CCCCC2)cc1OC

(more compounds)
KCNQ2 inh | KCNQ2 inh baseline | compound
i | -1.76 | CCC(C)NC(=O)C1c2ccccc2C(=O)N1Cc1ccc(F)cc1 (stereo not given)
i | -2.61 | COc1cc(C(CC(=O)Nc2ccccn2)N2Cc3ccccc3C2=O)cc(OC)c1OC (stereo not given)
i | -0.32 | CCOC(=O)CN1CC23C=CC(O2)C(C(=O)NCc2ccccc2OC)C3C1=O (stereo not given)
i | 2.96 | CCN(CC)S(=O)(=O)c1ccc(-c2csc(C)n2)cc1
i | 0.41 | COc1ccc2nc(SCc3cnc(C)nc3N)[nH]c2c1
i | -0.61 | Cc1nc(C(C)NC(=O)c2ccc(OC3CCN(Cc4ccccn4)CC3)cc2)c(C)s1 (stereo not given)
i | -1.69 | COc1cc2c(cc1NC(=O)CN1CCN(S(=O)(=O)c3ccc(C)cc3)CC1)oc1ccccc12
i | 0.07 | CN1CCN(C(=S)NC(=O)c2cccc(S(=O)(=O)N(C)C)c2)CC1

Single records (already shown). Screens in order: KCNQ2 inh | KCNQ2 inh baseline
CCC(C)NC(=O)C1c2ccccc2C(=O)N1Cc1ccc(F)cc1 (stereo not given) reads i | -1.76
CCN(CC)S(=O)(=O)c1ccc(-c2csc(C)n2)cc1 reads i | 2.96

Remaining list, next part.
KCNQ2 inh | KCNQ2 inh baseline | compound
i | 0.04 | O=C(NC1CC1)c1cc2ccccc2o1
i | -0.17 | CC(O)Cc1nsc(NC(=O)c2cccs2)n1 (stereo not given)
i | 0.12 | Cc1cccc(CC(=O)NCCS(=O)(=O)N2CCN(c3cccc(Cl)c3)CC2)c1
i | -0.08 | CCc1cc(C(=O)N2CCN(C(=O)c3ccco3)CC2)sc1C
i | 0.76 | CCOc1ccccc1C1CC(c2ccc(F)cc2)Nc2nc(N)nn21 (stereo not given)
i | 0.2 | C=CCN1C(=NC(=O)COc2ccccc2)SC2CS(=O)(=O)CC21 (stereo not given)
i | 0.73 | CC(=O)/C(=C/N(C)C)C(=O)Nc1ccc(Cl)cc1Cl
i | 1.4 | CN(C)S(=O)(=O)c1cc(NC(=O)COC(=O)C2COc3ccccc3O2)ccc1Cl (stereo not given)
i | -1.26 | CCOc1ccccc1OCCOc1ccccc1OC(C)C
i | 0.26 | CCOC(=O)c1ccccc1NC(=O)c1cncc(Br)c1
i | -0.61 | CCCCn1c(N)c(N(CCOC)C(=O)c2ccc(Br)s2)c(=O)[nH]c1=O
i | -0.61 | CCOc1ccc(/C=N/NC(=O)C(C)N(c2ccc(OC)cc2)S(C)(=O)=O)cc1OCC (stereo not given)
i | -0.14 | O=C(CC(SCc1ccco1)c1ccc(O)cc1)c1cccs1 (stereo not given)
i | -0.79 | CCCc1nn(C)c(C(=O)Nc2cccc(C)c2)c1Cl
i | 1.05 | CC(=O)c1ccc(-c2ccccc2OC(F)(F)F)o1
i | -2.9 | NN(CCO)C(=S)Nc1ccc(Cl)cc1
i | 3.35 | O=C(NCCCCC(NC(=O)C1CCCCC1)C(=O)O)c1ccccc1 (stereo not given)
i | 0.05 | CC(C(=O)Nc1ccon1)N1C(=O)c2ccccc2S1(=O)=O (stereo not given)
i | 2.4 | Cc1ccc(CNC(=O)CCc2ccccc2)cc1
i | -0.04 | Cc1cccc2c1-c1sc(C(=O)N3CCCCC3)cc1CO2
i | -0.47 | COc1ccc(NC(=O)NNC(=O)C(C)Oc2ccc3ccccc3c2)cc1 (stereo not given)
i | -0.12 | CCOC(=O)N1CCC(N2Cc3cccc(C(=O)Nc4c(C)cccc4CC)c3C2=O)CC1
i | 0.57 | Cc1cc(=O)n2[nH]c(-c3ccc(F)cc3)nc2n1

Only part of the results is shown (hit frequency here may not be typical).
